Assay outcomes as filed in PubChem BioAssay.
Anaer choline gr – growth inhibitors of anaerobic choline-fed gram-negatives, minimal medium, absorbance; Gram-negative bacterium anaerobic choline minimal medium; hits give low values; many inactives read as strong as hits in the columns shown; calls only; actives 0.2% (n = 55,000); AID 1963822, 2024;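 active = growth z-score on choline under -2 at 7 or 20 h with little or no fall on glycerol, limits in tiers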;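 also: stock transfer was 300 nL into about 50 µL; the organism is E. coli; final concentration not given here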
Anaer choline gr early – further read-out of Anaer choline gr, marked with its call; z-score; measured here: choline growth z-score, timepoint 1;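 score of optical density at 7 h as mean of two plates; lower means less growth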
Starred values were filed as active, the others as inactive; i = inactive; + = active, no number; & = joins results of further samples. These rows are one share of the data; count on the stated rates, not on these rows.

SMILES | Anaer choline gr | Anaer choline gr early
COc1ccc2c(c1)c1nc(SCc3c(C)noc3C)n(C)c(=O)c1n2C | i | -0.02
CCc1noc2nc(C)n(CC(=O)NCCC3=CCCCC3)c(=O)c12 | i | 0.12
Cc1sc(-c2noc(C3CCC3)n2)cc1S(=O)(=O)N1CCCC(C(=O)N2CCOCC2)C1 (stereo unspecified) | i | 0.64
COc1ccc(Br)cc1CN1CCCC1c1cc(C(C)C)on1 (stereo unspecified) | i | -0.71
COC(=O)c1ccc(Cl)cc1NC(=O)Cn1ccn2nc(-c3ccc(Cl)cc3)cc2c1=O | i | -1.3
O=C(CN1C(=O)C2CCCCC2C1=O)N1CCN(c2ccc(F)cc2)CC1 (stereo unspecified) | i | -0.75
O=C(Nc1cccc(F)c1)c1nnc(C(=O)N2CCC(C(=O)NC3CCCC3)CC2)s1 | i | 0.12
Cc1cccc2nc(CSc3nc4[nH]ncc4c(=O)n3-c3ccccc3Cl)cc(=O)n12 | i | -1
O=C(c1cc(-c2cccnc2)n(-c2ccc(F)cc2)n1)N1CCN(c2ccccn2)CC1 | i | -1
COc1cccc(NC(=O)CN2C(=O)CCc3cc(S(=O)(=O)N4CCCC4)ccc32)c1 | i | -0.19
CC(C)(C)NC(=O)N1CCC(c2nc(CCNC(=O)C3CC3)cs2)CC1 | i | -0.56
c1ccc(CCNc2ncccc2-c2nc(-c3ccccc3)no2)cc1 | i | 0.91
COc1ccc(-c2nc3ccccc3c3nnc(SCc4cccnc4)n23)cc1 | i | 1
CC(=O)Nc1ccc(-c2noc(C3CCCN(C(=O)c4ccccc4F)C3)n2)cc1 (stereo unspecified) | i | 1
CCCNC(=O)N1CCCC1c1ccc(Cl)cc1 (stereo unspecified) | i | -0.24
O=C(Nc1ccc2c(c1)OCO2)c1nnc(C2CCN(C(=O)Nc3ccc(F)cc3F)CC2)s1 | i | 0.55
C#CCOc1cccc(C2CC(=O)Nc3c2c(C)nn3-c2nc3ccccc3s2)c1 (stereo unspecified) | i | 1.4
COc1ccc(C2(c3nc(Cn4cnc(S(=O)(=O)N5CCOCC5)c4)no3)CC2)cc1 | i | 0.35
CS(=O)(=O)N1CCCN(Cc2ccsc2)CC1 | i | -2.4
COc1ccccc1CNC(=O)c1ccc(N2CCCC2)c(NC(=O)Nc2ccc(Cl)cc2)c1 | i | -0.07
O=C(Cn1c(=O)n(Cc2ccccc2)c(=O)c2ncccc21)N1CCN(c2ccccc2)CC1 | i | 1
O=C(NCCC1=CCCCC1)c1nnc(Cc2ccc(Cl)cc2)o1 | i | 1.3
CCCOc1cc(O)c2c(=O)cc(-c3ccccc3)oc2c1 | i | 0.35
c1ccc(SCc2nnc3sc(-c4ccncc4)nn23)cc1 | i | -0.25
CCc1ccc2c(c1)-c1ccccc1S(=O)(=O)N2CC(=O)N1CCOCC1 | i | 0.94
Cc1ccc(-c2noc(C3CC3)n2)cc1S(=O)(=O)N1CCC(C(=O)N2CCc3ccccc32)CC1 | i | 0.91
Cc1cc(C)cc(NC(=O)NCCCn2c(-c3ccc(F)cc3)nc3cccnc32)c1 | i | 0.42
Cc1c(C(=O)N2CCC(N(C)C(C)C)CC2)sc2ncnc(N3CCN(C)CC3)c12 | i | 0.25
O=C(Cn1nc(Cc2cccnc2)c2ccccc2c1=O)N1CC=C(c2ccccc2)CC1 | i | 0.62
CCCNC(=O)Cn1nc(-c2ccc(Cl)cc2)c2c(C)onc2c1=O | i | -0.23
COc1ccc2[nH]c(C(=O)NCc3cccc(F)c3)c(N3CCCC3=O)c2c1 | i | 0.78
Cc1cc(N2CCOCC2)nc(N2CCN(C(=O)c3cccc(Br)c3)CC2)n1 | i | 1.2
Cc1sc(C)c(S(=O)(=O)N(C)Cc2ccccc2)c1-c1cc(C(F)(F)F)on1 | i | 1.3
O=C(c1cnc2ccccc2c1S(=O)(=O)c1ccccc1)N1CCSCC1 | i | -1.3
O=S(=O)(c1ccc(-c2nnc(C3CCC3)o2)o1)N1CCOCC1 | i | -0.08
COC(=O)c1cc2ccsc2n1CC(=O)NCCC(C)C | i | -0.96
CCCCOc1c(OC)cccc1C1CC(=O)Nc2c1c(C)nn2-c1ccc2nncn2n1 (stereo unspecified) | i | 0.99
Fc1ccccc1-c1ccc(SCc2nc(-c3cccc(Cl)c3)no2)nn1 | i | 0.38
CCn1cc(C(=O)NC)c(S(=O)(=O)N2CCSCC2)n1 | i | 0.41
CCOc1cc(-c2cccc(Cl)c2)nc2ccc(C(=O)NCCc3c[nH]c4ccc(OC)cc34)cc12 | i | 0.77
COc1ccc(C2c3[nH]c4ccc(OC)cc4c3CCN2C(=O)Nc2ccc3c(c2)OCCO3)cc1 (stereo unspecified) | i | 0.04
COc1ccccc1N(Cc1nc2nc(C)cc(=O)n2[nH]1)C(=O)CC(C)C | i | -0.77
COc1cc(C(=O)NS(=O)(=O)c2ccccc2C)ccc1Cc1cn(C)c2ccc(NC(=O)OC3CCCC3)cc12 | i | 1.3&0.41&-0.8
CCOC(=O)C1CCN(C(=O)c2snc3c(=O)n(C(C)C)c(=O)[nH]c23)CC1 | i | 0.9
O=C(C1CCCN(c2nc3ccccc3n3cccc23)C1)N1CCN(c2ccccc2)CC1 (stereo unspecified) | i | 0.34
CC(C)(C)c1csc(-c2csc(S(=O)(=O)NC3CCCCC3)c2)n1 | i | -0.78
CC(C)(C)NC[C@H](O)COc1cccc2c1CCCC2=O | i | 0.49
O=C(C1CCN(c2nc3ccccc3[nH]2)CC1)N1CCN(C2CCCCC2)CC1 | i | 0.09
COc1cccc(NC(=O)C2CCCN(C(=O)C3Sc4ccccc4NC3=O)C2)c1 (stereo unspecified) | i | 0.12
Cc1cc(NC(=O)N2CCC3(CC2)CC(=O)c2ccccc2O3)ccc1Br | i | 1.3

Going on with the list.
SMILES | Anaer choline gr | Anaer choline gr early
COc1ccc(CNC(=O)Cn2nc3c4sc(N(C)C)nc4ncn3c2=O)cc1 | i | -0.39
CN(CC(=O)Nc1ccc2c(c1)OCCO2)S(=O)(=O)c1cc2c(cc1Cl)NC(=O)CO2 | i | -0.36
O=C(Nc1ccc(F)cc1)c1oc2ccccc2c1NC(=O)C1c2ccccc2Oc2ccccc21 | i | -0.7
CCCNC(=O)c1ccc2c(=O)n(CCOC)c(SC(C)C(=O)c3ccc(C)c(C)c3)nc2c1 (stereo unspecified) | i | 0.05
CC1CCN(c2nn3c(C(=O)N4CCC(N5CCCCC5)CC4)cc(=O)nc3s2)CC1 | i | -0.95
CC(C)CC(=O)N1CCCC1c1nc2ccccc2s1 (stereo unspecified) | i | -0.27
c1ccc(SCc2nnc3sc(-c4cccnc4)nn23)cc1 | + | -3*
COC(=O)c1sccc1NC(=O)Cn1ccn2nc(-c3ccccc3)cc2c1=O | i | 1.1
CS(=O)c1ccc(-c2nc(-c3ccc(F)cc3)c(-c3ccncc3)[nH]2)cc1 (stereo unspecified) | i | -0.3&-0.26&-1.9&0.55
O=C(CN1CCN(Cc2ccccc2Cl)S1(=O)=O)Nc1ccc2c(c1)OCCO2 | i | -0.02

Ordered by number of heavy atoms (largest number first): some entries from above.
SMILES | Anaer choline gr | Anaer choline gr early
O=C(Nc1ccc(F)cc1)c1oc2ccccc2c1NC(=O)C1c2ccccc2Oc2ccccc21 | i | -0.7
CCCNC(=O)c1ccc2c(=O)n(CCOC)c(SC(C)C(=O)c3ccc(C)c(C)c3)nc2c1 (stereo unspecified) | i | 0.05
O=C(C1CCCN(c2nc3ccccc3n3cccc23)C1)N1CCN(c2ccccc2)CC1 (stereo unspecified) | i | 0.34
CC1CCN(c2nn3c(C(=O)N4CCC(N5CCCCC5)CC4)cc(=O)nc3s2)CC1 | i | -0.95
COc1cccc(NC(=O)C2CCCN(C(=O)C3Sc4ccccc4NC3=O)C2)c1 (stereo unspecified) | i | 0.12
COc1ccc(CNC(=O)Cn2nc3c4sc(N(C)C)nc4ncn3c2=O)cc1 | i | -0.39
Cc1cc(NC(=O)N2CCC3(CC2)CC(=O)c2ccccc2O3)ccc1Br | i | 1.3
CC(C)(C)c1csc(-c2csc(S(=O)(=O)NC3CCCCC3)c2)n1 | i | -0.78
c1ccc(SCc2nnc3sc(-c4cccnc4)nn23)cc1 | + | -3*
CC(C)(C)NC[C@H](O)COc1cccc2c1CCCC2=O | i | 0.49
CC(C)CC(=O)N1CCCC1c1nc2ccccc2s1 (stereo unspecified) | i | -0.27

Next section
SMILES | Anaer choline gr | Anaer choline gr early
CC(=O)N(c1cccc(Cl)c1)C1C=CS(=O)(=O)C1 (stereo unspecified) | i | 0.66
O=C(Nc1sc2c(c1C(Nc1ccccn1)c1ccsc1)CCCC2)c1ccccc1 (stereo unspecified) | i | -0.84
O=S(=O)(c1ccc(-c2nnc(C3CC3)o2)o1)N1CCN(C2CCCCC2)CC1 | i | -0.88
CCc1cccc(C)c1NC(=O)Cn1c(=O)c(CCC(=O)NC2CCCC2)nc2ccccc21 | i | 1.3
Cc1cc(=O)[nH]c2nnc(SCC(N)=O)n12 | i | 0.36
CCOC(=O)C1=C(C)NC(C)=C(C(=O)OC)C1c1cccc([N+](=O)[O-])c1 (stereo unspecified) | i | 1&0.76&0.71&0.31&0.29&0.36&0
Cc1ccccc1CSc1nnc([C@@H]2CCCN2)o1 | i | -0.7
CC(C)NC(=O)Cn1c2c(c(=O)n3ncnc13)CCC2 | i | -0.02
O=C(COc1ccccc1)N1CCC(c2nc3ccccc3s2)CC1 | i | -0.01
Cc1nn(-c2ccc3nncn3n2)c2c1C(c1ccc(OC3CCCC3)cc1)CC(=O)N2 (stereo unspecified) | i | -1.4
CCCCC(C)(C)[C@H](O)/C=C/[C@@H]1[C@@H](C/C=C\CCCC(=O)O)[C@H](O)C[C@H]1O | i | 0.53
O=C(NCCc1nc2cccnc2n1-c1ccccc1)NC1CCCC1 | i | 0.39
COc1cccc(C(=O)N2CCN(Cc3c[nH]c4ccccc34)CC2)c1 | i | 0.3
Cc1cccc(-c2nccc(Nc3cccc(C(=O)NCC(C)C)c3)n2)c1 | i | -0.03
COc1cccc(OCC(=O)Nc2cc(C)nn2-c2ncnc3c2cnn3-c2ccc(F)cc2)c1 | i | -1.6
CC(=O)N1c2ncnn2C2(CCCCC2)[C@@H]2CCCC[C@@H]21 | i | -0.22
Fc1cccc(-c2nnc3sc(-c4c[nH]c5ccccc45)nn23)c1 | i | 0.3
Cc1sc2cc(C(=O)N3CCC4(CC3)OCCO4)[nH]c2c1CN1CCCCC1 | i | 0.93
CCN(Cc1ccccc1)C(=O)C1CCN(S(=O)(=O)c2ccc3c(c2)NC(=O)CO3)CC1 | i | 0.8
Cc1ccsc1CN1CCCCCC1c1cccs1 (stereo unspecified) | i | -0.08
CCCCn1c(CN2CCCCC2)nc2cc(NC(=O)C3CCCCC3)ccc21 | i | -2.8
Cc1cc(S(=O)(=O)N2CCC(n3c(=O)[nH]c4ccccc43)CC2)ccc1-n1cnnn1 | i | -0.44
c1ccc(-c2cc(-c3nc(-c4ccc5c(c4)OCO5)no3)[nH]n2)cc1 | i | -0.1
O=c1c2cc(-c3ccc(F)cc3)nn2cnn1Cc1nc(-c2ccc3c(c2)OCO3)no1 | i | -0.82
CCc1ccc(S(=O)(=O)c2cnc(N3CCN(c4cccc(C)c4C)CC3)nc2N)cc1 | i | -1
CCOc1ccc2c(c1)sc1nc(-c3ccc(O)cc3)c(NC(C)(C)C)n12 | i | 0.21
CC1CCC(NC(=O)C2(C)Cn3c(cc4occc43)C(=O)N2C2CCC(C)CC2)CC1 (stereo unspecified) | i | -0.51
COCC(=O)N(C)CCc1noc(COc2ccc(OC)cc2)n1 | i | -0.13
CCS(=O)(=O)N1CCCN(C(=O)C2CCCO2)CC1 (stereo unspecified) | i | -0.47
C=CCn1c(=O)c2sc(N3CCCCC3)nc2n(CC(=O)Nc2ccc3c(c2)OCCO3)c1=O | i | 2
CCOC(=O)CC(=O)Nc1c(C)nc2sccn2c1=O | i | -0.23
Cc1ccc(-c2nc(Cn3cnc(S(=O)(=O)N4CCCCC4)c3)no2)s1 | i | -0.85
Cc1ccc2c(c1)NC(C(=O)Nc1ccc3c(c1)OCCO3)NS2(=O)=O (stereo unspecified) | i | -0.73
COc1ccc(Cl)cc1NC(=O)NCCc1c(C)nn(C)c1C | i | -1
CC(C)c1cc(Nc2ccc(Br)cc2)n2nc(-c3cccnc3)nc2n1 | i | -0.23
CCCCC(=O)Nc1ccc(SCc2cc(=O)n3c(ncn3C(C)C)n2)cc1 | i | 0.47
O=C(CC1CCN(C(=O)NC2CCCCC2)CC1)N1CCN(c2ccccn2)CC1 | i | 0.25
CCOc1ccc(CNC(=O)c2ccc(-c3cccnc3)cc2)cc1OCC | i | -0.36
Cc1ccc(Cl)cc1NC(=O)C1CCCN(C(=O)c2ccccc2F)C1 (stereo unspecified) | i | -0.23
COc1ccc(OC)c(-c2csc(-c3c(N)c(C(=O)c4ccc(F)cc4)n4ccccc34)n2)c1 | i | -0.76
COc1cccc(NC(=O)c2ccccc2-c2nc(-c3ccccc3)no2)c1 | i | -0.7
Cc1ccc(Nc2nc(C(N)=O)c(NC(=O)COc3ccccc3)s2)cc1 | i | 0.08
COc1cccc(-c2noc(CCn3nc(-c4cccc(Cl)c4)ccc3=O)n2)c1OC | i | 0.82
Cc1cccc(N(C)Cc2cc(=O)n3nc(CC(C)C)sc3n2)c1 | i | 0.89
CCOc1ccccc1NC(=O)c1cnn2c(C(F)F)cc(-c3ccccc3)nc12 | i | 0.51
Cc1ccc(S(=O)(=O)Cc2noc(CCNS(=O)(=O)c3ccc(C)cc3)n2)cc1 | i | -0.13
CCc1ccc(NC(=O)Cn2cc(S(=O)(=O)NC)c(S(=O)(=O)NC)c2)cc1 | i | 0.37
COc1ccc(OC)c(NC(=O)c2cc3c(CO)cnc(C)c3oc2=O)c1 | i | 1.4
CCS(=O)(=O)N1CCc2cc(C(=O)Nc3ccccc3C(=O)OC)ccc21 | i | 0.66

Quoted at random: 3 compounds from above
SMILES | Anaer choline gr | Anaer choline gr early
COc1ccc(OC)c(NC(=O)c2cc3c(CO)cnc(C)c3oc2=O)c1 | i | 1.4
Cc1cccc(N(C)Cc2cc(=O)n3nc(CC(C)C)sc3n2)c1 | i | 0.89
CCc1ccc(NC(=O)Cn2cc(S(=O)(=O)NC)c(S(=O)(=O)NC)c2)cc1 | i | 0.37
